Compound activity from PubChem.
PKD1 kinase inh – inhibitors of human PKD1 kinase, biochemical, fluorescence polarization; hit rate 0.056% among 200,000; PKD1 kinase fluorescence polarization assay; inhibition, %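 (about 10 µM by stock and volumes)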; Serine/threonine-protein kinase D1 (Homo sapiens), Q15139;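 active means inhibition of 50% or more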;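 further: controls were vehicle for no effect and a reference inhibitor for full effect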
Target sequence (Q15139 whole entry, looked up): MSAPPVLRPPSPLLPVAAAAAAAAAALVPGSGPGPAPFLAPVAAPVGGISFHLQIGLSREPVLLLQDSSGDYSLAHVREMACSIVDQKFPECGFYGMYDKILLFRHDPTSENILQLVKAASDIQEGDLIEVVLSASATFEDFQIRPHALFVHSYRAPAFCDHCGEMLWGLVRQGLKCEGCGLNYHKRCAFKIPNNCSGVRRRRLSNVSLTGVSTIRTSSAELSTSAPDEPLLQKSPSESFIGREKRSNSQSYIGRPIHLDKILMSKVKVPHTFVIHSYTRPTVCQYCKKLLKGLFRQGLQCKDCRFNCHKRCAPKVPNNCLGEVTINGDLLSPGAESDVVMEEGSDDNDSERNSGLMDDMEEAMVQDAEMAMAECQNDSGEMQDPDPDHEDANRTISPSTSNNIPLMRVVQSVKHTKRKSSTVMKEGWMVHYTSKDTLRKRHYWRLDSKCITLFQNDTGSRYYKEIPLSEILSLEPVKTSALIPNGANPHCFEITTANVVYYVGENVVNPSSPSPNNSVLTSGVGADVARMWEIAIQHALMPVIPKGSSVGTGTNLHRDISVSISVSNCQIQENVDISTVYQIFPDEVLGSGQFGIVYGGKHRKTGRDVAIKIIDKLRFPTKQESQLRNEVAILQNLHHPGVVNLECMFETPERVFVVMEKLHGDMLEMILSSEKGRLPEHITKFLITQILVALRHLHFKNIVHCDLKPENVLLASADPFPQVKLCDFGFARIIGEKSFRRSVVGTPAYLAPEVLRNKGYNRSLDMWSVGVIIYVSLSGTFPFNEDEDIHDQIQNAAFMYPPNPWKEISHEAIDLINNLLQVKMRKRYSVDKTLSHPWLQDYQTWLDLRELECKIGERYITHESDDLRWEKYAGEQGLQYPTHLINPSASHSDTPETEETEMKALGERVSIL
Insulin prom inh – inhibitors of insulin promoter-driven GFP, primary screen, imaging, TRM-6 cells (human fetal islet line), eGFP reporter, cell count. hit rate 0.9% among 130,000. AID 1273, 2008. reporter expression induced with tamoxifen. inhibition, % at 2 µM;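 active means inhibition above the mean plus 3 SD, with well images judged a real hit on visual review, cut at about 60% in these data, passing the limit was not always enough; inconclusive means inhibition over the cutoff but images rejected on review; inactive means inhibition not above the cutoff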
HSV replic up – enhancers of HSV replication in host cells, fold increase, host cell viability. HSV replication augmentation in cells. maximum fold increase. hit rate 0.005% among 220,000;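 active means peak rise of 1.5-fold or more in the series; inconclusive means self-fluorescent or not available for retest; tested in PC3 cells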;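 further: first round at 10 µM; read as green reporter fluorescence; hits show the peak of a series up to 25 µM; 1 = signal of infected wells without compound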
GALR2 ag – GALR2 receptor agonists, primary screen, cell-based; Galanin receptor type 2 (Homo sapiens), O43603; GALR2-expressing cells, agonist activation read-out; hit rate 0.48% among 140,000; activation, %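 (tested at 5 µM)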;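 active means above mean plus 3 SD of all compounds, about 5% in these data, not always enough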;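 further: 0% = vehicle buffer wells and 100% = reference agonist at full effect; tested in CHO reporter cells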
RGS16-Gao – modulators of RGS16 binding to Galphao, primary screen, biochemical, human proteins, multiplexed bead flow cytometry; bead-based flow cytometry RGS16-Galphao binding, fluorescence; actives lie on both sides; hit rate 0.38% among 220,000; AID 1441, 2008; binding response (% of control), % at 10 µM;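 active means below 25% or above 175%, edge rows of some plates excepted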;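 further: Galphao activated by GDP with aluminum fluoride before binding; 100% = wells without compound and 0% = beads without RGS; some results beyond the cut were filed as inactive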
Insulin prom inh cell count – also measured in Insulin prom inh; calls as there; normalized cell count, %; measured here: cell count, toxicity; reference of the scale not given here;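 cells exposed to compound for 48 h; stained nuclei by imaging scaled within each plate; lower means fewer cells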
HSV replic up primary fold – also measured in HSV replic up; calls as there; fold increase; compound at 10 µM; measured here: primary screen fold increase 10 uM; tested in PC3 cells;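 GFP signal in the first replicate; 1 = infected wells without compound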
The depositor's hits bear a star; i = inactive; ? = inconclusive; · = not tested or not shown.

SMILES	PKD1 kinase inh	Insulin prom inh	Insulin prom inh cell count	HSV replic up	HSV replic up primary fold	GALR2 ag	RGS16-Gao
Cc1ccc(S(=O)(=O)N2CCCC2C(=O)O)s1 (configuration not stated)	-5.4	-9.9	102.0	i	0.92	-1.8	103.2
CCOc1ccc(CCN2C(=O)C3C4C=CC(C4)C3C2=O)cc1OCC (configuration not stated)	-5.1	·	·	i	1.02	1.1	92.3
Cc1c(Br)c([N+](=O)[O-])nn1C(C)C(=O)NCc1ccco1 (configuration not stated)	-2.2	·	·	i	1.07	-0.9	106.9
COc1cccc(NC(=O)c2cc(-c3cccnc3)nc3c(Cl)cccc23)c1	6.5	·	·	i	1.07	-1.8	100.5
COc1ccccc1NC(=O)Cn1nnc2sc3c(c2c1=O)CC(C)(C)OC3	·	·	·	i	1.15	·	99.1
Cc1cc(C(=O)CN2C(=O)C(=O)N(C)C2=O)c(C)n1-c1cccc(S(=O)(=O)N2CCOCC2)c1	·	·	·	i	0.98	·	106.3
COc1ccc(CCNC(=O)CSc2nnnn2-c2ccc(OC)c(OC)c2)cc1OC	5.9	-20.0	110.0	i	0.86	·	99.2
Cc1ccc2nc(SCC(=O)Nc3cccc(S(N)(=O)=O)c3)[nH]c2c1	·	·	·	i	0.86	·	97.1
Cc1ccc(/C=C2/SC(=S)N(CC(=O)Nc3ncc(Cc4ccc(C)cc4)s3)C2=O)cc1	-5.7	-23.1	129.6	i	0.91	-2.6	104.2
O=C(/C=C/c1ccc(S(=O)(=O)N2CCOCC2)cc1)N1CCN(c2ccccc2)CC1	-5.9	·	·	i	1.05	·	104.9
O=C(O)[C@H](Cc1ccccc1)NC(=O)C(c1ccccc1)(c1ccccc1)c1ccccc1	2.5	·	·	i	1	·	110.1
CCOC(=O)CSc1cc(CS(=O)(=O)c2ccccc2)nc(-c2ccccc2)n1	5.9	-20.7	86.7	i	0.92	-2.1	102.2
COc1ccc(NC(=O)CSc2nc3ccccc3c(=O)n2CCCN2CCCCC2)c(OC)c1	-2.3	0.0	122.0	·	·	0.5	81.9
COc1ccc(C2CC(=O)C3=C(C2)Nc2ccccc2N(C(C)=O)C3c2ccco2)cc1 (configuration not stated)	0.7	·	·	i	0.98	-2.2	94.4
O=C(COC(=O)c1cccc(Br)c1)NCCc1ccc(F)cc1	-0.9	3.9	72.5	i	1.04	-1.6	78.7
CC(C)COC(=O)Cn1cnc2ccc(Br)cc2c1=O	9.2	·	·	·	·	-0.7	102.6
NNc1nc2c(-c3ccc(Cl)cc3)nnn2c2ccccc12	-1.8	·	·	?	·	·	99.8
CSc1n[nH]c(-c2ccc(C(F)(F)F)cc2)n1	·	·	·	i	0.94	·	101.4
CCOC(=O)N1CCN(Cc2nc(-c3cccc(C)c3)no2)CC1	-5.4	-13.3	116.6	i	0.91	-0.5	105.1
COC(=O)CNC(=O)COC(=O)Cc1ccc(Cl)cc1	-3.4	·	·	i	0.93	·	98.8
OCCN(CCO)CC(O)COCCC12CC3CC(CC(C3)C1)C2 (configuration not stated)	-3.0	34.5	150.0	i	0.97	0.5	100.4
COC(=O)/C(C#N)=C1/SC=C(C)N1c1ccccc1	-0.4	-114.3	73.3	i	0.98	-1.0	103.8
CCCCNC(=S)NNC(=O)c1cc(C)on1	-0.8	16.7	113.3	i	0.99	-2.1	100.7
CCOc1ccc(C(=O)NCC(=O)OCC(=O)N2CCCC2)cc1	-9.6	·	·	i	1.03	·	96.5
COc1ccc(OCc2n[nH]c(=S)n2Cc2ccco2)cc1	5.7	·	·	i	0.95	·	97.2
Cc1nc(SCC(=O)c2ccccc2)[nH]c(=O)c1Oc1ccc(Cl)cc1	·	·	·	i	1.2	·	98.9
COc1ccc(S(=O)(=O)N2CCCCCC2)cc1	-2.9	-9.9	109.2	i	0.75	-0.7	103.7
COc1ccc(-c2cc(C(=O)c3c(N)n(C)c(=O)n(C)c3=O)c3ccccc3n2)cc1	·	·	·	i	0.95	·	100.7
O=C(COC(=O)c1ccccc1OCc1ccccc1Cl)NC1CC1	-0.5	-42.1	341.4	i	0.98	0.6	108.4
C/C(=N\Nc1cc(C)nc(-c2ccccc2)n1)c1cccc([N+](=O)[O-])c1	-4.3	·	·	i	0.78	·	107.0
COc1ccc(S(=O)(=O)NCCN2CCOCC2)c2ccccc12	-3.3	-38.5	78.5	i	0.87	-0.2	100.0
CC(=O)N1CCc2cc(C(=O)CN3CCN(c4cccc(Cl)c4)CC3)ccc21	3.8	·	·	i	0.78	-1.9	162.5
CC1CCCCC1NC(=O)c1cn(C)c2ccc(S(=O)(=O)N3CCCC3)cc2c1=O (configuration not stated)	-9.8	·	·	i	0.91	0.1	93.0
CC(=O)C1=C(c2ccccc2)N(C(C)=O)n2c(C)nnc2S1	5.9	·	·	i	1.04	·	103.2
OC(CNC1Cc2ccccc2C1)COc1ccc(Cl)cc1 (configuration not stated)	·	·	·	i	0.93	·	107.7
CCCC(=O)Nc1ccc2c(c1)C(=O)N(CCC(=O)O)C2=O	-8.2	-92.6	84.9	i	0.96	-1.5	89.8
Cc1ccccc1CS(=O)(=O)Cc1ccc(C(=O)N2CCOCC2)o1	-8.5	·	·	·	·	-0.6	104.4
O=C1NC(=Nc2ccc(Cl)cc2)SC1Cc1cccc(Cl)c1Cl (configuration not stated)	-7.0	·	·	·	·	0.4	101.8
COc1cccc2c1C(=O)CC2NC(=O)C(F)(F)F (configuration not stated)	-7.1	30.0	74.9	i	0.75	-2.5	104.5
Nc1ccc2nc(-c3ccccc3)[nH]c2c1	-10.4	56.8	87.4	i	0.76	-3.0	108.1
NC(=O)c1c(-c2cccs2)csc1N	-4.6	-22.2	140.3	i	0.94	-2.2	96.3
CCn1c(=O)c2c3c(sc2n2c(=S)[nH]nc12)CCC3	-3.9	-20.0	130.4	i	0.91	-3.6	106.9
CC(=O)Nc1ccc(SCC(=O)Nc2sccc2C#N)cc1	-9.9	54.5	170.7	i	1.1	·	105.2
Cc1ccc(CNC(=O)c2ccc(S(=O)(=O)Nc3c(C)n(C)n(-c4ccccc4)c3=O)cc2)cc1	·	·	·	i	1.03	·	95.3
CC(=O)Nc1ccc(NC(=O)C2CC(=O)N(c3ccccc3Cl)C2)cc1 (configuration not stated)	4.9	30.8	90.9	i	0.98	·	104.6
COCCOC(=O)C1=C(N)Oc2c(oc(CO)cc2=O)C1c1c(F)cccc1Cl (configuration not stated)	-0.9	·	·	i	1.04	-1.8	98.2
CC(=O)/C(=N\Nc1ccccc1)Oc1ccc([N+](=O)[O-])cc1	-2.0	18.8	116.1	i	0.94	-3.1	44.9
CCC(=O)Nc1ccc(NC(=O)c2ccccc2Cl)nc1	1.1	-112.5	108.8	i	1.12	-2.2	97.9
CCOC(=O)C(C)n1cnc2c(nnn2-c2ccc(OC)cc2)c1=O (configuration not stated)	-9.7	-55.6	67.6	i	0.93	-1.1	93.2
Cc1ccc2c(c1)C(c1ccccc1)N(C(=O)C(C)C)CC(=O)N2 (configuration not stated)	-1.0	·	·	i	1	-1.0	108.1
Cc1ccc(NC(=O)N2CCc3ccccc32)cc1	-2.8	34.5	138.6	i	0.48	-2.1	57.6
CN(C)CCNC(=O)C(=O)NCC1OCCCN1S(=O)(=O)c1cccs1 (configuration not stated)	4.4	-18.8	92.3	i	0.99	0.8	98.0
CC(=O)Nc1ccc(S(=O)(=O)N(C)CC(=O)OCC(=O)Nc2cccnc2Cl)cc1	-10.0	-23.1	125.7	i	1.01	-1.4	105.4
CC1CCCCN1C(=O)CSc1nc(C2CC2)nc2c1cnn2-c1ccccc1 (configuration not stated)	-1.7	·	·	i	0.97	0.0	99.4
Cc1nc(-c2cccc(S(=O)(=O)N3CC(C)CC(C)C3)c2)cs1 (configuration not stated)	4.9	-19.5	118.0	i	0.903	-2.4	63.6
COC(=O)CCC(=O)Nc1c(C)n(C)n(-c2ccccc2)c1=O	-1.9	·	·	i	0.95	·	106.5
COc1cccc(COC(=O)c2nn(-c3ccccc3)nc2N)c1	-7.1	47.4	97.6	i	0.97	·	100.1
Cc1cc(C)c(C)c(S(=O)(=O)NCCCN2CCOCC2)c1C	13.4	·	·	i	1	·	134.7
NS(=O)(=O)c1cccc2cccnc12	11.0	-54.5	80.9	i	0.94	-2.1	103.6
Cc1ccc(-c2nnn(CC(=O)N(Cc3ccc(F)cc3)C(C(=O)NC3CCCC3)c3ccncc3)n2)o1 (configuration not stated)	-7.3	35.1	114.9	i	1.1	-0.6	98.0

More entries follow:
SMILES	PKD1 kinase inh	Insulin prom inh	Insulin prom inh cell count	HSV replic up	HSV replic up primary fold	GALR2 ag	RGS16-Gao
Cc1ccc(NC2=NCC(=O)N2c2ccc3c(c2)OCCO3)c(C)c1	-10.8	62.2	32.3	i	1.03	-2.1	94.6
O=c1[nH]c(=O)n(Cc2ccccc2)c2nc(-c3ccco3)cc(C(F)(F)F)c12	-9.9	·	·	i	0.907	1.1	97.2
Cc1cc(=O)n(C)c(=O)n1CCCCOc1cccc([N+](=O)[O-])c1	-12.3	-10.7	96.9	i	0.74	0.2	100.6
COc1cc(OC)cc(C(=O)NC(=S)Nc2cc3oc4ccccc4c3cc2OC)c1	-6.3	-165.3	88.7	i	0.97	0.6	100.7
Cc1ccc(C2=NN(C(=O)CSc3nc4ncc(Cl)cc4[nH]3)C(c3ccco3)C2)cc1 (configuration not stated)	-3.5	·	·	i	1.03	·	94.1
CCCCn1cnc2c([nH]c3ccccc32)c1=O	-2.9	81.6*	150.0*	i	1.14	-0.3	92.9
CCOC(=O)c1c(C)oc(/N=C/c2ccccc2O)c1C#N	-6.0	·	·	i	0.95	-2.2	101.3
COC(=O)C(NS(=O)(=O)c1ccccc1Br)C(C)C (configuration not stated)	·	·	·	i	0.925	·	102.9
O=S(=O)(NCCc1ccncc1)c1ccc(Br)cc1	0.8	-6.9	141.9	i	0.67	-2.0	102.4
Cn1c(-c2ccc3c(c2)OCO3)c(C(=O)O)c(=O)c2ccccc21	2.9	·	·	i	0.83	-0.3	101.8
O=C(NCCNC(=O)c1ccccc1)c1ccccc1	·	·	·	i	0.91	·	95.5
COc1ccc(/C=C2/C(=O)N=C(N)N2C)cc1OC	0.8	-252.2	102.4	i	1.15	-2.0	151.7
CCCn1nc2cc(C(=O)NCc3ccccc3)ccc2c1OCC	1.6	·	·	i	0.75	-1.3	114.0
COc1ccc(-c2[nH]ncc2CN2CCCOc3c(cccc3OC)C2)c(OC)c1	-4.6	·	·	i	1.04	·	99.7
Cc1nc2sc(C(c3ccc(F)cc3)N3CCN(C(=O)c4ccco4)CC3)c(O)n2n1 (configuration not stated)	6.9	·	·	i	0.97	0.2	99.9
CCC(C)NS(=O)(=O)c1ccc(NC(=O)c2c(-c3ccccc3)noc2C)cc1 (configuration not stated)	-8.9	·	·	i	0.89	-1.0	122.9
CCOc1cc(CNCCCN2CCOCC2)cc(Br)c1OCC(=O)Nc1cccc(C(F)(F)F)c1	9.2	·	·	i	0.88	0.8	100.8
O=c1c2sccc2nc(SCc2cc(=O)n3cc(Cl)ccc3n2)n1-c1ccc(F)cc1	3.6	·	·	i	0.94	0.4	104.7
COC(=O)c1cc(OC)c(OC)cc1NCC(=O)Nc1ccc(OC)c(OC)c1	-11.7	3.7	46.3	i	1.11	0.4	46.1
Cc1cc(C)nc(NS(=O)(=O)c2ccccc2)n1	-0.5	·	·	i	0.84	-0.4	102.3
c1ccc(OCc2nc(-c3ccncc3)no2)cc1	-3.5	·	·	i	1.04	·	102.4
CSCCC(NC(N)=O)C(=O)Nc1cccc(C#N)c1 (configuration not stated)	-2.7	·	·	i	1.02	·	101.6

Reprinted from the listing for reference:
SMILES	PKD1 kinase inh	Insulin prom inh	Insulin prom inh cell count	HSV replic up	HSV replic up primary fold	GALR2 ag	RGS16-Gao
Cc1ccc(NC2=NCC(=O)N2c2ccc3c(c2)OCCO3)c(C)c1	-10.8	62.2	32.3	i	1.03	-2.1	94.6
O=c1[nH]c(=O)n(Cc2ccccc2)c2nc(-c3ccco3)cc(C(F)(F)F)c12	-9.9	·	·	i	0.907	1.1	97.2
Cc1cc(=O)n(C)c(=O)n1CCCCOc1cccc([N+](=O)[O-])c1	-12.3	-10.7	96.9	i	0.74	0.2	100.6
COc1cc(OC)cc(C(=O)NC(=S)Nc2cc3oc4ccccc4c3cc2OC)c1	-6.3	-165.3	88.7	i	0.97	0.6	100.7
Cc1ccc(C2=NN(C(=O)CSc3nc4ncc(Cl)cc4[nH]3)C(c3ccco3)C2)cc1 (configuration not stated)	-3.5	·	·	i	1.03	·	94.1

Hits appear at their usual frequency, and some 1.3% of all compounds hit somewhere here.
